Source: PubChem BioAssay
GALR2 agonist = activates the human galanin receptor 2 | O43603 | GALR2-expressing cells, agonist activation read-out | activation, %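 (tested at 5 µM)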 | actives 0.48% (n = 140,000) | AID 803;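 active means above mean plus 3 SD of all compounds, about 5% in these data, not always enough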;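 further: 0% = vehicle buffer wells and 100% = reference agonist at full effect; tested in CHO reporter cells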
PKD1 kinase inh = PKD1 (human) kinase inhibition; PKD1 kinase fluorescence polarization assay; inhibition, %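 (about 10 µM by stock and volumes)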; actives 0.056% (n = 200,000); AID 797;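 active means inhibition of 50% or more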;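 further: controls were vehicle for no effect and a reference inhibitor for full effect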
Target sequence (Q15139 whole entry, looked up): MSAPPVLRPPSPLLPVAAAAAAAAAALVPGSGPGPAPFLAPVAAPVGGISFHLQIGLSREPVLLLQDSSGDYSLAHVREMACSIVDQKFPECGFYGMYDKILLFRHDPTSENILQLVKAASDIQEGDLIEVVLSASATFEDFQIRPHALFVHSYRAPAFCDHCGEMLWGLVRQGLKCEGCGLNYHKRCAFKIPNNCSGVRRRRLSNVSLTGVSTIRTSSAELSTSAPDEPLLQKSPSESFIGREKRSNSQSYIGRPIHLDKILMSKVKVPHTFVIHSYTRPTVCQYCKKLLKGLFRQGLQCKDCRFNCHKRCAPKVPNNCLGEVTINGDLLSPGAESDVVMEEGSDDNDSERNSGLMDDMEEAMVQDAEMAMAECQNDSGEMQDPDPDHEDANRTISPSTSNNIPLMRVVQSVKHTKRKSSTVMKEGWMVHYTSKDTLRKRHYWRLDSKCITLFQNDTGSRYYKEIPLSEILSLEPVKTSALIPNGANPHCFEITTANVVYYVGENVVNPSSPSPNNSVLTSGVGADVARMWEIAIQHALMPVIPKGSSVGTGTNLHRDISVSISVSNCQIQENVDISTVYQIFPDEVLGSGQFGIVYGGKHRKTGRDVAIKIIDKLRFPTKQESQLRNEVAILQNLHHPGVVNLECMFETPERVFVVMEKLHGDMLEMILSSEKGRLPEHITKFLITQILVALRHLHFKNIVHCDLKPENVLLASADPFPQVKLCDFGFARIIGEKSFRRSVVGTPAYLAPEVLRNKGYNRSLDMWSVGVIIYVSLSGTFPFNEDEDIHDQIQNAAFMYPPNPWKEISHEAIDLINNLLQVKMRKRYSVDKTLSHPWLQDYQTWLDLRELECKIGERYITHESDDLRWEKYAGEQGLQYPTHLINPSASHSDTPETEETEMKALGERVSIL
HSV augment = increases HSV replication in cells; maximum fold increase; HSV replication augmentation in cells, fold increase; actives 0.005% (n = 220,000);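 active means peak rise of 1.5-fold or more in the series; tested in PC3 cells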;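 further: first round at 10 µM; read as green reporter fluorescence; hits show the peak of a series up to 25 µM; 1 = signal of infected wells without compound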
INS promoter inh = TRM-6 insulin promoter activity inhibition | TRM-6 cells (human fetal islet line), insulin promoter-eGFP reporter, imaging; reporter expression induced with tamoxifen | inhibition, % at 2 µM | actives 0.9% (n = 130,000) | AID 1273;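 active means inhibition above the mean plus 3 SD, with well images judged a real hit on visual review, cut at about 60% in these data, passing the limit was not always enough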
RGS16-Gao = RGS16-Galphao interaction regulator (human) | O15492+P09471 | bead-based flow cytometry RGS16-Galphao binding, fluorescence; actives lie on both sides | binding response (% of control), % at 10 µM | actives 0.38% (n = 220,000);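 active means below 25% or above 175%, edge rows of some plates excepted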;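 further: Galphao activated by GDP with aluminum fluoride before binding; 100% = wells without compound and 0% = beads without RGS; some results beyond the cut were filed as inactive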
INS promoter inh cell count = recorded beside INS promoter inh, whose call it bears; normalized cell count, %; measured here: cell count, toxicity; reference of the scale not given here;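 cells exposed to compound for 48 h; stained nuclei by imaging scaled within each plate; lower means fewer cells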
HSV augment primary fold = second read-out of HSV augment, no call of its own (marks repeat the call); fold increase; compound at 10 µM; measured here: primary screen fold increase 10 uM; tested in PC3 cells;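 GFP signal in the first replicate; 1 = infected wells without compound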
Starred values were filed as active, the others as inactive; i = inactive; . = no result given; & = joins results of further samples.

Fields – GALR2 agonist	PKD1 kinase inh	HSV augment	HSV augment primary fold	INS promoter inh	INS promoter inh cell count	RGS16-Gao
- CCNc1nc(SC(C(C)=O)C(C)=O)nc(N(C)C)n1
 : -0.1	-4.3	i	1.02	-48.6	100.0	103.3
- O=C(NCCc1ccccc1)C1CCN(S(=O)(=O)c2ccccc2)CC1
 : -1.8	-7.3	i	1.1	30.0	114.7	105.0
- COCCCn1c(=O)c2ccccc2c2ccccc2c1=O
 : -3.2	-3.0	i	0.92	57.1	130.4	102.3
- CCOC(=O)C1CCCN(Cc2cc(OC)c(O)c(OC)c2)C1 (stereo unspecified)
 : -1.2	-3.0	i	0.99	.	.	105.2
- Cc1ccc(NC(=O)NCc2ccncc2)cc1Cl
 : .	-1.1	i	1.04	-42.1	108.3	96.8
- COc1ccc(CCN2CCC(Nc3nc4ccccc4n3Cc3ccc(F)cc3)CC2)cc1
 : 24.9*	-7.6	i	0.64	-36.4	141.2	105.0
- CCCCn1c(SCc2ccc(C(=O)OC)o2)nc2cc(S(N)(=O)=O)ccc21
 : -1.1	3.8	i	0.73	.	.	102.4
- C=C(Br)CN1CCN(CC(=C)Br)CC1
 : -2.0	-1.4	i	1.08	4.8	84.9	104.6
- O=C(Cn1nc(-c2ccccc2)ccc1=O)NCCCN1CCOCC1
 : .	.	i	1.12	.	.	95.7
- O=C(Nc1ccccc1)N1CCSc2ccccc21
 : .	-1.5	i	0.94	14.3	104.4	97.1
- COCCN(C(=S)Nc1cccc(OC)c1)C1CCN(C(C)C)CC1
 : -0.1	-9.9	i	0.84	-76.7	124.2	93.5
- Cc1cc(NS(=O)(=O)c2ccccc2)no1
 : -3.5	-7.3	i	0.84	.	.	100.4
- COC(=O)C1=C(C)NC(=O)NC1c1ccc(OC(=O)c2ccco2)cc1 (stereo unspecified)
 : .	-12.7	i	1	-17.9	144.4	108.8
- Cc1ccc(C(=O)O)cc1-c1ccc(/C=C2/NC(=O)N(c3ccccc3)C2=O)o1
 : 1.9	1.1	i	0.87	-1.4	90.1	94.4
- Cc1ccc(NS(=O)(=O)c2ccc(C(=O)OCC(=O)Nc3cc(C)on3)cc2)cc1
 : .	-1.7	i	0.98	7.7	49.6	104.6
- CCCCN(CCNP(=O)(OCC)OCC)CP(=O)(OCC)OCC
 : -1.1	1.3	i	0.81	-9.3	37.6	98.5
- CCOC(=O)C(=O)N1CCC(Cc2ccccc2)CC1
 : .	8.1	i	0.9	.	.	99.5
- Oc1c(CN2CCOCC2)ccc2ccccc12
 : .	-3.8	i	1	.	.	109.2
- CC1Cc2ccccc2N1C(=O)C1CCCCN1S(=O)(=O)c1ccccc1 (stereo unspecified)
 : -4.9	-12.1	i	0.83	13.5	77.8	73.9
- O=C(O)/C=C/C(=O)Nc1ccc(C(=O)c2ccccc2)cc1
 : .	-0.8	i	0.87	.	.	105.8
- COc1ccccc1NC(=O)c1c(C)cc(=O)oc1C
 : -3.0	-2.5	i	0.94	.	.	107.4
- c1ccc(-c2noc(-c3ccco3)n2)nc1
 : -1.9	-4.4	i	1.03	-11.1	131.4	114.8
- COC(=O)c1cc(=O)n(Cc2ccc(F)cc2)c(=NCc2ccc(F)cc2)s1
 : .	-5.7	i	0.76	0.0	130.8	99.3
- COc1ccc(-n2c(Cc3cccn3C)nnc2SCC(=O)NCCc2ccccc2)cc1
 : -1.4	-8.3	i	0.9	.	.	80.8
- CCc1ccc2[nH]c(=O)c(CN(CCN(CC)CC)C(=O)Nc3ccccc3OC)cc2c1
 : -1.7	-0.4	i	0.94	.	.	103.1
- C=CCn1c(SCC(=O)Nc2sccc2C(N)=O)nc2sc(CC)cc2c1=O
 : -1.2	3.0	i	0.9	-15.4	70.4	99.8
- CN(/N=C/c1ccncc1)c1cnc2ccccc2n1
 : .	0.7	i	0.98	63.0	121.1	104.2
- CC(C)CCN1CCN(Cc2cc(F)ccc2-n2cccn2)CC1CCO (stereo unspecified)
 : .	-7.1	i	1.03	.	.	96.3
- Cc1ccc(C(=O)NNC(=O)c2ccc3ncccc3c2)cc1
 : .	2.3	i	1.02	-30.0	58.9	99.9
- O=C(CN(c1cccc(Cl)c1)S(=O)(=O)c1ccccc1)NN=C1CCCC1
 : .	3.6	i	0.94	5.9	82.1	107.8
- CC(C)NC(=O)C(=O)N/N=C/c1ccco1
 : -2.0	-13.9	i	0.99	0.0	130.0	96.7
- C/C(=N\NS(=O)(=O)c1ccc(C)c([N+](=O)[O-])c1)c1cccs1
 : .	3.0	i	1.08	.	.	100.0
- CC(C)n1nnnc1SCC(=O)NCc1ccco1
 : -2.4	-8.7	i	1	-20.9	121.2	74.5
- CCN(C(=O)CSc1nc2ccccc2c(=O)n1CCOC)C1CCS(=O)(=O)C1 (stereo unspecified)
 : .	5.1	i	0.73	-55.6	65.0	90.2
- O=C(CSc1nc2[nH]ncc2c(=O)[nH]1)NCc1ccc(F)cc1
 : -0.1	0.2	i	0.92	40.0	145.6	101.0
- NC(=O)NC(=O)COC(=O)CCCCCNS(=O)(=O)c1ccc2c(c1)OCCO2
 : .	-3.7	i	0.9	.	.	100.0
- CCOC(=O)N1CCN(C(=O)c2ccc3nc4ccc(Cl)cc4c(=O)n3c2)CC1
 : 0.9	8.0	i	1.01	-81.8	133.5	100.1
- COc1ccc(CCNC(=O)c2cc(-c3cc(Cl)cc(Cl)c3)oc2C)cc1
 : -2.2	0.9	i	0.99	-33.3	42.3	103.4
- CCOC(=O)c1c(-c2ccc(C)o2)csc1NC(=O)CN1CCOCC1
 : -1.1	-1.2	i	0.98	-40.0	71.4	107.1
- O=C(Nc1ccc(O)c2c(=O)cc(-c3cccc(Cl)c3)oc12)c1cccc(Cl)c1
 : .	.	i	0.86	.	.	98.9
- OCCNCCCCOc1ccc(OCc2ccccc2)cc1
 : -0.4	7.8	i	0.69	15.4	121.0	107.1
- CCc1ccc(C(C(=O)NC2CCCCC2)N(C(=O)c2ccccn2)c2cccnc2)cc1 (stereo unspecified)
 : .	-1.1	i	1.18	14.3	79.7	116.0
- CCOC(=O)Cn1ncc2c(=O)oc3ccccc3c21
 : -4.0	-8.2	i	1.07	.	.	105.9
- CCOC(=O)CNC(=O)CNC(=O)c1ccc(OC)cc1
 : -0.8	-4.2	i	0.93	24.2	135.9	102.9
- CC(CCc1ccccc1)NC(=O)N1CCOCC1 (stereo unspecified)
 : -0.4	-6.9	i	0.91	18.9	129.3	101.6
- COCCNC(=O)c1csc2c1CCCC2
 : 0.4	-14.9	i	0.8	.	.	109.6
- C/C(=C\C(=O)O)C12CC3CC(CC(C3)C1)C2
 : -0.6	-1.0	i	1.14	-38.7	144.7	96.1
- Cc1ccc(SCC(=O)NCCCN2CCOCC2)cc1
 : -1.9	-4.2	i	0.91	12.5	149.7	107.4
- Cc1occc1C(=O)N1N=C(C2CC2)CC1(O)C(F)(F)F (stereo unspecified)
 : -1.1	1.1	i	0.97	25.7	125.4	102.9
- COc1ccc(C2NCCC3(O)CCCCC23)c(OC)c1OC (stereo unspecified)
 : -2.8	-8.3	i	0.88	11.5	110.4	100.0
- O=S1(=O)C=C(SCCN2CCCCC2)c2ccccc21
 : -1.0	5.7	i	0.8	-5.0	77.3	101.3
- CCOc1nc2c(c(=O)n(C)c(=O)n2C)n1Cc1ccccc1Cl
 : -1.6	4.5	i	0.99	42.4	64.5	102.0
- COc1ccc(N2C(=O)CC(NNC(=O)c3cc(C)oc3C)C2=O)cc1 (stereo unspecified)
 : .	1.4	i	1	.	.	99.1
- Cc1ccc(OCc2ccc(C(=O)NN)o2)c([N+](=O)[O-])c1
 : .	.	i	1.02	.	.	98.7
- O=C(NCCCn1ccnc1)c1cc(-c2cccnc2)nc2ccc(Br)cc12
 : .	-5.2	i	0.88	.	.	102.1
- CSc1nc(C)c(C(=O)Nc2ccccc2)c(C)c1C#N
 : -3.1	-6.4	i	0.68	22.6	169.5	102.2
- CCOc1cc2[nH]c(=S)n(CCN3CCCCC3CC)c(=O)c2cc1OCC (stereo unspecified)
 : -2.0	-5.7	i	0.76	0.0	96.1	101.8
- COCCNC(=O)c1ccccc1NC(=O)Nc1ccccc1
 : .	0.1	i	1.1	.	.	-10.9
- CC(=O)N1CCN(Cc2nc3cc(NC(=O)c4ccc(Cl)cc4)ccc3n2C)CC1
 : -2.3	-1.1	i	1.24	25.0	97.5	101.6
- Cc1nc2nc(SCC(N)=O)[nH]c2cc1Br
 : -3.1	-4.8	i	0.94	.	.	70.8

Entries of single compounds from above. Values in the order: GALR2 agonist | PKD1 kinase inh | HSV augment | HSV augment primary fold | INS promoter inh | INS promoter inh cell count | RGS16-Gao
Shown for O=S1(=O)C=C(SCCN2CCCCC2)c2ccccc21 = -1.0 | 5.7 | i | 0.8 | -5.0 | 77.3 | 101.3
Shown for CCOc1nc2c(c(=O)n(C)c(=O)n2C)n1Cc1ccccc1Cl = -1.6 | 4.5 | i | 0.99 | 42.4 | 64.5 | 102.0
Shown for O=C(NCCCn1ccnc1)c1cc(-c2cccnc2)nc2ccc(Br)cc12 = . | -5.2 | i | 0.88 | . | . | 102.1
Shown for CC(=O)N1CCN(Cc2nc3cc(NC(=O)c4ccc(Cl)cc4)ccc3n2C)CC1 = -2.3 | -1.1 | i | 1.24 | 25.0 | 97.5 | 101.6
Shown for CCc1ccc(C(C(=O)NC2CCCCC2)N(C(=O)c2ccccn2)c2cccnc2)cc1 (stereo unspecified) = . | -1.1 | i | 1.18 | 14.3 | 79.7 | 116.0

More records
Fields – GALR2 agonist	PKD1 kinase inh	HSV augment	HSV augment primary fold	INS promoter inh	INS promoter inh cell count	RGS16-Gao
- CCC(C)(C(=O)NC1CCCCC1)N(C(=O)c1ccccn1)c1ccc(C)cc1 (stereo unspecified)
 : -2.0	1.6	i	1.01	5.6	83.6	99.7
- O=C(Nc1ccc(N2CCN(C(=O)c3ccccc3)CC2)c(Cl)c1)c1cccnc1
 : -2.3	-2.4	i	0.93	29.6	65.5	99.6
- CC(C)CCNC(=S)Nc1ccc2nc3n(c(=O)c2c1)CCCCC3
 : -1.9	-8.5	i	0.92	-38.9	115.3	106.3
- O=C(c1ccc(CSc2nc3ccncc3[nH]2)cc1)N1CCCCC1
 : -2.1	-7.3	.	.	7.3	136.4	101.3
- OC(COc1ccc(OCc2ccccc2)cc1)CN1CCOCC1 (stereo unspecified)
 : -1.8	-2.8	i	1	-90.3	147.2	106.7
- O=c1cc(CSc2ccc(Cl)cc2)[nH]c2[nH]n(-c3ccccc3)c(=O)c12
 : .	.	i	1.12	.	.	80.9
- CCCCCCCCCc1nc(N)n[nH]1
 : -1.6	4.2	.	.	.	.	98.0
- O=C(c1ccc(F)cc1)N1CCCCC(Sc2nnc3ccccn23)C1=O (stereo unspecified)
 : -2.5	-2.9	i	1.01	.	.	97.4
- CCn1c(SCc2nc3ccccc3c(=O)[nH]2)nc2ccccc2c1=O
 : 1.8	-11.7	i	0.86	-69.4	146.3	32.6
- COc1ccc(CC(=O)N2CCNC2=O)cc1
 : 0.6	7.5	i	0.96	50.0	113.6	103.1
- Cc1cccc(NC(=O)Cn2nnc3ccccc32)c1
 : .	5.7	i	0.95	-7.1	82.2	96.2
- CC1(C)Cc2c(sc3nc(-c4ccccc4Cl)n(N)c(=O)c23)CO1
 : -0.8	1.4	i	0.97	-15.4	116.8	102.4
- Cc1nn(C)c(C)c1S(=O)(=O)N1CCCC(C(=O)NC2CCCCC2)C1 (stereo unspecified)
 : -0.5	7.9	i	0.96	.	.	109.8
- Cc1cc(SCC#N)n2nc(C)c(-c3ccccc3)c2n1
 : -1.4	-1.3	i	0.95	13.3	72.7	99.0
- CC(C)CNC(=O)/C=C/C(=O)O
 : .	-7.4	i	1.01&0.98	-54.5	138.7	106.0&113.9
- COC(=O)C(=N/Nc1ccccc1C(=O)OC)/C(C)=N/O
 : .	.	i	0.91	.	.	100.0
- O=Cc1c(NCc2ccco2)nc2ccccn2c1=O
 : .	-6.8	i	1.05	.	.	103.1
- Cc1ccc(-c2noc(CN3CCCCC3)n2)cc1
 : -0.4	4.2	i	0.81	18.5	99.2	98.0
- Cc1cccc(C)c1NC(=O)C(=O)NCCOc1ccc(Cl)cc1
 : -2.0	-11.7	i	0.73	19.4	133.0	97.0
- COc1cc(C(=O)OCC(=O)N(C)C)cc(NC(=O)c2ccco2)c1OC
 : -1.0	-7.7	i	0.93	-6.7	127.2	142.3
- CCOC(=O)c1[nH]c(C)c(C(=O)Nc2ccccc2C)c1C
 : -0.7	-9.8	i	0.67	-371.4	28.7	99.3
- CN(C)CCCOC(=O)C1c2ccccc2Oc2ccccc21
 : -0.5	3.9	i	0.96	55.3	65.8	107.9
- CSc1ncc(Cl)c(C(=O)Nc2ccc(NC(C)=O)cc2)n1
 : .	-3.1	i	0.67	-8.3	119.8	98.1
- CCc1cccc(CC)c1NC(=O)CO/N=C(\N)CC(=O)NC1CCCCC1
 : .	-6.7	i	0.97	.	.	103.6
